High-throughput results as filed in PubChem BioAssay.
miR-21 reporter: miR-21 reporter, rising signal; HeLa miR-21 FLuc reporter, luciferase, 48 h; Potency, µM (top dose mostly 38.3 µM), for the others: top-dose reporter change, positive = more light; 340,000 tested, under 10 active; active = well fitted rising curve with a large enough effect; inconclusive = small, poorly fitted or top-dose-only effect; inactive = no such curve, though single readings can be large or run the other way;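 also: % of control where 0% means no effect; miR-21 action dims this reporter so a rising signal means less miR-21 action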
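HeLa miR-21-FLuc reporter line, endogenous miR-21; 2000 cells/well in DMEM/10% FBS; compound titration up to ~40uM final, 48 h, 37 degree Celsius; luciferase detection reagent, 15 min lysis, CCD luminescence.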
Rango release inh: inhibition of RanGTP-driven Rango-importin beta dissociation | Biochemical FRET Rango-importin beta, RanGTP-induced dissociation | 340,000 tested, 0.071% active | Potency, µM (doses to about 46.1 µM), inactives show top-dose activity change, negative = inhibition | O95149+P62826 | AID 540253; active means falling FRET ratio curve, often poorly fitted, with flat reads before Ran was added; inconclusive means other falling curves, or compound fluorescence or quenching; inactive means flat or rising ratio curve;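 also: potency is read from the fitted curve at half-maximal effect; % of control where 0% means no effect; nearly all actives have a fitted effect of over 45% in size; -100% = wells without RanGTP and RCC1; the record marks most hits as doubtful in a second field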
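Compounds sat 5 min at room temperature with 0.1 uM Rango biosensor plus 0.25 uM importin beta, then FRET pre-read. RanGTP-RCC1 (0.6 uM Ran, 2mM GTP, 0.2 uM RCC1) added for 45 min, and the CFP/YFP post-read measured blocked complex dissociation.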
GLA inh pH 4.5: alpha-galactosidase A (human) inhibition, pH 4.5; AID 1467; 230,000 tested, under 10 active; purified enzyme, 4-MU-alpha-Gal fluorescence, pH 4.5; activity change, negative = inhibition, % at 105 µM; P06280; inconclusive = small, poorly fitted or top-dose-only inhibition, or a rising curve; inactive = flat fitted curve, though single readings scatter; no compound was filed as active;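 also: 0% = full activity with enzyme and -100% = basal without enzyme; dose as in the result columns while the protocol names 77 µM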
Rango-impB inh: Rango-importin beta binding inhibition; Q14974; Rango CFP/YFP FRET sensor + importin beta, 45 min; Potency, µM (doses to about 92.2 µM), for the others: at the top dose inhibition of complex formation; 340,000 tested, 0.031% active; active = rising FRET ratio curve, often small or poorly fitted; inconclusive = mostly compound fluorescence or quenching in the first reads; inactive = flat curves in all reads;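 also: potency is read from the fitted curve at half-maximal effect; 0% = DMSO wells and 100% = buffer wells lacking importin beta; nearly all actives have a fitted effect of over 15% in size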
Target sequence (Q14974 whole entry, looked up): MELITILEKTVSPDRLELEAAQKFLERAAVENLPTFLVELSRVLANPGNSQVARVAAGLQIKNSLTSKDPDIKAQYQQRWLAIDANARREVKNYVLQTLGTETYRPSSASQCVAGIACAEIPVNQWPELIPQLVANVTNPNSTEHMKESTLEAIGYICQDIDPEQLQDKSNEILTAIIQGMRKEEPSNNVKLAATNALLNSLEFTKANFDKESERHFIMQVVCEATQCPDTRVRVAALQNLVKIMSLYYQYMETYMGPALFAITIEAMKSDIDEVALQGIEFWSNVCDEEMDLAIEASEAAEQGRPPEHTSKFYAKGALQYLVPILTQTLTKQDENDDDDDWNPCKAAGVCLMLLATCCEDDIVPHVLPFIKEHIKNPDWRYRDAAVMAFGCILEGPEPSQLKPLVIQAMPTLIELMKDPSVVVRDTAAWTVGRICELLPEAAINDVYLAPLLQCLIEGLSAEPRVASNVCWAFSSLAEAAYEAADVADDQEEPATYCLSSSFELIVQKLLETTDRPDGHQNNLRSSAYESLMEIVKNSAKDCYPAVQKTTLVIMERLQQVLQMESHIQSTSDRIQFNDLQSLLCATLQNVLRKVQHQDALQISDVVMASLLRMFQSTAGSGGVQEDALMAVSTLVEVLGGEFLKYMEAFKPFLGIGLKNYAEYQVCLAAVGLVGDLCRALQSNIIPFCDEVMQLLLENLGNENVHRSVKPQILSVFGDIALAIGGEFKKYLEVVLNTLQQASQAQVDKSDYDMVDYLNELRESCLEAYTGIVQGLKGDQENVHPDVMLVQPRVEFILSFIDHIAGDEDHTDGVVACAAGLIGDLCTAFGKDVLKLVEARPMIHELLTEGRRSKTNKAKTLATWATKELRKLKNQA
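Inhibition scored from the CFP 486 nm/YFP 530 nm FRET ratio 45 min after adding 0.125 microM importin beta to 50 nM Rango biosensor preincubated 5 min with compound (room temperature, PBS with DTT, Tween-20, BSA). No-importin wells as positive control.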
* = called active by the depositor; ? = inconclusive; nt = no result given; & = joins results of further samples; [ ] = another dose, or the depositor's remark. A portion of the library, so the mix of outcomes need not match the whole.

Below each SMILES – miR-21 reporter	Rango release inh	GLA inh pH 4.5	Rango-impB inh
1: Cc1ccccc1CC(=O)NC1CCN(C)CC1
  0%	4%	nt	0.6%
2: NC(N)=N/N=C/c1ccccc1OC(F)F
  3%	0%	-2	0.0%
3: C#CCOCCOCCOCCNc1nc(N2CCN(C(=O)CCCCCCCCCCNC(=O)Cn3cc(CCCCCN)nn3)CC2)nc(N2CCN(C(=O)CCCCCCCCCCNC(=O)[C@H]([C@@H](C)CC)n3cc(CCCCCN)nn3)CC2)n1
  nt	-8%	nt	13%
4: CCOc1ncccc1C(=O)OCC(=O)Nc1cc(C(C)(C)C)ccc1OC
  nt	-3%	nt	1.5%
5: Cc1ccc(-c2nn(CC(=O)NCCN3CCOCC3)c(=O)c3ccccc23)cc1
  -2%	0%	-12	1.8%
6: O=C(N/N=C\c1ccc(Sc2ccccn2)o1)c1cccc(Br)c1
  -7%	5%	-21	0.3%
7: O=Cc1ccc(F)c([B-](F)(F)F)c1
  nt	0%	nt	-4.0%
8: CC1CCCC(NC(=O)c2ccc3c(c2)NC(=O)CS3)C1C (configuration not stated)
  -19%	0%	nt	6.7%
9: O=C1C=C(NC(=O)Nc2ccc(Cl)c(Cl)c2)CCC1
  3%	5%	0	-1.8%
10: Cc1ccc(C)c(N2CCN(C(=O)CCc3nc(-c4ccc(Cl)cc4)no3)CC2)c1
  nt	2%	nt	-0.7%
11: CCCNC(=O)C1CN(S(=O)(=O)c2ccc(C)cc2)c2ccccc2O1 (configuration not stated)
  -7%	-2%	nt	?
12: COc1cccc(CN(C)C(=O)Nc2cccc(C(F)(F)F)c2)c1OC
  -1%	20%	2	2.9%
13: O=C1c2nccnc2C(=O)N1c1ccc(F)cc1
  -1%	24%	5	1.3%
14: COc1ccc(CNC(=O)C2CC(c3ccc(C(F)(F)F)cc3)=NO2)cc1 (configuration not stated)
  1%	1%	14	3.5%
15: CC12COC3(C(=O)Nc4nccs4)CC1CCC32C (configuration not stated)
  -16%	-9%	5	-0.3%
16: COC(=O)c1ccc(OC(=O)CCc2cc(OC)c(OC)c(OC)c2)cc1
  0%	16%	7[21.1 µM]	-0.4%
17: CCCC(c1nnnn1CC(=O)OCC)N(Cc1cc2c(C)cc(C)cc2[nH]c1=O)C1CCCC1 (configuration not stated)
  -3%	-20%	-2	0.2%
18: COc1ccccc1-c1c(C#N)c(N)nc2c1CCC2
  0%	?	9	?
19: O=C(NCC(c1ccco1)N1CCCC1)c1ccc(Cl)c(S(=O)(=O)N2CCc3ccccc32)c1 (configuration not stated)
  nt	-14%	nt	?
20: CCOCCOC(=O)C(C)Sc1n[nH]c(=O)[nH]c1=O (configuration not stated)
  -3%	-2%	-2	2.5%
21: CCN1C(=O)C2(C(C(=O)c3ccc(C)o3)=C(O)C(=O)N2CCCN(C)C)c2ccccc21 (configuration not stated)
  0%	11%	4	-0.7%
22: CCn1c(CSc2nc3ccccc3s2)nnc1SCC(=O)c1ccc2c(c1)OCCO2
  -17%	-9%	0	?
23: Cc1nn(CC(=O)Nc2nnc(CC(=O)N3CCCC3)s2)c(=O)c2ccccc12
  1%	3%	-5	-0.9%
24: CC(=O)Nc1ccccc1-c1nc2ccc(C(=O)N3CCN(c4cccc(C)c4)C(C)C3)cc2[nH]c1=O (configuration not stated)
  5%	24%	4	0.0%
25: CCCCN(C)CCCNC(=O)C1(O)c2ccccc2NC(=O)N1c1ccc(Cl)cc1 (configuration not stated)
  -9%	2%	nt	-0.9%
26: CC(=O)Nc1ccc(Nc2c([N+](=O)[O-])c(=O)n(-c3ccccc3)c3ccccc23)cc1
  -5%	10%	-4	-0.3%
27: COc1cc(C2C(C(=O)c3ccc(C)o3)=C(O)C(=O)N2c2cc(C)on2)ccc1OCc1ccccc1 (configuration not stated)
  -1%	13%	nt	0.5%
28: Cc1ccc(-c2nc(CN(C)C3CCOCC3)c(C)o2)s1
  1%	?	0	-2.8%
29: CCOC(=O)CNC(=O)c1cc(OC)cc(OC)c1
  -9%	-2%	7	0.2%
30: COc1cc(C=C(C(C)=O)C(C)=O)ccc1O
  3%	-7%	-10	-2.3%

Gathered by group, the entries above containing sulfur
Below each SMILES – miR-21 reporter	Rango release inh	GLA inh pH 4.5	Rango-impB inh
6: O=C(N/N=C\c1ccc(Sc2ccccn2)o1)c1cccc(Br)c1
  -7%	5%	-21	0.3%
8: CC1CCCC(NC(=O)c2ccc3c(c2)NC(=O)CS3)C1C (configuration not stated)
  -19%	0%	nt	6.7%
11: CCCNC(=O)C1CN(S(=O)(=O)c2ccc(C)cc2)c2ccccc2O1 (configuration not stated)
  -7%	-2%	nt	?
15: CC12COC3(C(=O)Nc4nccs4)CC1CCC32C (configuration not stated)
  -16%	-9%	5	-0.3%
19: O=C(NCC(c1ccco1)N1CCCC1)c1ccc(Cl)c(S(=O)(=O)N2CCc3ccccc32)c1 (configuration not stated)
  nt	-14%	nt	?
20: CCOCCOC(=O)C(C)Sc1n[nH]c(=O)[nH]c1=O (configuration not stated)
  -3%	-2%	-2	2.5%
22: CCn1c(CSc2nc3ccccc3s2)nnc1SCC(=O)c1ccc2c(c1)OCCO2
  -17%	-9%	0	?
23: Cc1nn(CC(=O)Nc2nnc(CC(=O)N3CCCC3)s2)c(=O)c2ccccc12
  1%	3%	-5	-0.9%
28: Cc1ccc(-c2nc(CN(C)C3CCOCC3)c(C)o2)s1
  1%	?	0	-2.8%

Next part
Below each SMILES – miR-21 reporter	Rango release inh	GLA inh pH 4.5	Rango-impB inh
31: CCS(=O)(=O)N1CCC(C(=O)Nc2cc(Cl)ccc2O)CC1
  -4%	1%	4	-5.8%
32: CCOC(=O)CC(NC(=O)C(CC)c1ccccc1)c1ccccc1Cl (configuration not stated)
  -7%	18%	-3	-2.4%
33: O=C(NCCc1ccccc1)c1cccnc1
  -41%	15%	5	-1.6%
34: Cn1c(=O)c(C#N)c(-c2ccccc2)n2cnnc12
  -2%	8%	0	-3.8%
35: CC(=O)NCCc1ccc(C(=O)COC(=O)c2cc(C)oc2C)cc1
  nt	0%	nt	-3.5%
36: CN(C)c1ccc(/C=c2\sc3nc(-c4ccccc4)nn3c2=O)cc1
  1%	nt	10	nt
37: O=C(c1ccc(-c2ccccc2)cc1)N1CCC(C(=O)N2CCCC2)CC1
  5%	23%	-7	5.7%
38: COC(=O)c1ccc(C)c(NC(=O)Cc2ccc([N+](=O)[O-])cc2)c1
  4%	nt	0	nt
39: O=C(CSc1nc(O)cc(=O)n1-c1ccccc1)c1ccc(Br)cc1
  -21%	7%	5	-2.7%
40: CC1CN(C(=O)COC(=O)c2ccc(F)cc2Cl)CC(C)O1 (configuration not stated)
  -6%	8%	nt	0.2%
41: COc1ccc(C)cc1S(=O)(=O)N(C)CC(=O)Nc1ccc2c(c1)OCCO2
  2%	3%	-3	-3.1%
42: Cc1cccc(/C=N/n2c(C3CCCCC3)n[nH]c2=S)c1
  -6%	8%	nt	2.8%
43: COc1cc(N2C(=O)CSC23C(=O)Nc2ccccc23)cc(OC)c1OC (configuration not stated)
  -1%	-13%	3	-2.7%
44: CC/C(=N/NC(=O)c1ccc(Br)o1)c1ccc(Cl)cc1
  -47%	-4%	7	-3.9%
45: Cc1ccc(NC(=O)c2ncc(Cl)c(Cl)c2Cl)cc1C
  -34%	6%	4	-4.3%
46: CCc1ccc(CNc2ccc3c(c2)ncn3C(C)(C)C)cc1
  -68%&-53%	-2%	nt	5.1%
47: CNc1snc(C)c1C(=O)OCC(=O)NCc1ccccc1OC
  nt	3%	nt	0.0%
48: CC(C)Nc1ccc(C(CC(N)=O)NC(=O)Cc2cccc3ccccc23)cc1[N+](=O)[O-] (configuration not stated)
  -2%	-14%	13	-0.9%
49: CCOC(=O)c1ccc(N=c2ssnc2Cl)cc1
  -16%	-10%	4	-0.2%
50: Cc1ccc(C(C)C)cc1OCC(=O)N1CCN(C(=O)c2ccco2)CC1
  nt	7%	nt	-0.7%
51: CCOc1ccc(OCCC(=O)OCC(=O)NC2CC2)cc1
  nt	-4%	nt	-0.9%
52: Cn1c(=O)oc2cc(S(=O)(=O)NCc3ccc(Cl)cc3)ccc21
  -1%	-11%	nt	-0.5%
53: Cc1cc(C)cc(NC(=O)CSc2nnnn2-c2cccnc2)c1
  2%	-2%	nt	5.5%
54: Cc1cccnc1-n1c(CCN2C(=O)c3ccccc3C2=O)nc2ccccc2c1=O
  -12%	-10%	-1	2.1%
55: CC(C)CN(C(=O)C1CC1)C1CCS(=O)(=O)C1 (configuration not stated)
  nt	-20%	nt	-0.7%
56: COc1ccccc1NC(=O)N1CCN(C(=O)Nc2ccccc2OC)CC1
  2%	17%	3	-0.5%
57: Cc1cccc(Nc2c(-c3ccc(N4CCOCC4)cc3)nc3ncccn23)c1
  -23%	?	6	?
58: CCOC(=O)CNC(=O)C1(/C=C/c2ccccc2)CC(=O)N1c1ccc(OC)cc1 (configuration not stated)
  -2%	1%	nt	0.2%
59: CCOc1ccc(NC(=O)CN2CCN(CC(=O)Nc3ccc(OC)cc3)CC2)cc1
  3%&-1%	-1%	1	0.7%
60: CCOC(=O)c1c(NC(=O)Cn2nnc(-c3ccccc3Cl)n2)sc(C)c1C
  0%	-16%	6	-2.7%
61: O=C(Nc1cc(N2CCCCC2)ncn1)c1ccc(F)cc1
  -50%	0%	4	2.9%
62: CS(=O)(=O)c1ccc(N2CCN(S(=O)(=O)c3cccs3)CC2)c([N+](=O)[O-])c1
  nt	-2%	nt	-0.6%
63: CCC(=O)Nc1nnc(S(=O)(=O)N(CC)c2ccc(OC)cc2)s1
  4%	-4%	nt	1.0%
64: O=C(COC(=O)CCCNC(=O)c1ccc(Cl)cc1)Nc1cc(Cl)c(Cl)cc1Cl
  0%	0%	1	3.8%
65: CC(C)(C)OC(=O)CNC(=O)c1[nH]cnc1C(=O)N[C@@H](CCCCN)C(=O)OC(C)(C)C
  nt	-21%	nt	-0.2%
66: N#Cc1c(-c2ccncc2)c2c([nH]c1=S)CCCC2
  -6%	-7%	-10	-2.2%
67: CC1(C)CC(=O)C=C(NCCCNC2CCCCC2)C1
  -1%	-7%	-5	0.7%
68: CCC1CCCCN1Cc1ccc(N)cc1 (configuration not stated)
  0%	-1%	-2	-3.2%
69: Cc1ccc(C(C)C)c(OCc2nc(-c3nonc3N)no2)c1
  -36%	3%	-9	1.3%
70: NC(=O)CCC(=O)N1CCCC(C(=O)c2ccc(C(F)(F)F)cc2)C1 (configuration not stated)
  0%	1%	nt	?
71: CN(C)c1cc(N)c2ccccc2n1 (tested in a mixture with another compound)
  4%	-10%	4	2.6%
72: Cc1cc(C)c(S(=O)(=O)N2CCCOC2CNC(=O)C(=O)NCc2ccncc2)c(C)c1 (configuration not stated)
  -7%	3%	-8	-1.4%
73: COc1ccccc1C1CC(=O)Oc2cc(C)c(Br)c(C)c21 (configuration not stated)
  nt	6%	-20	-4.7%
